HPGD inh = qHTS Assay for Inhibitors of HPGD (15-Hydroxyprostaglandin Dehydrogenase); purified HPGD, NADH fluorescence kinetic, PGE2 substrate; Potency, µM, inactives show at the top dose activity change, negative = inhibition, hits mostly inhibitors; actives 4.3% (n = 150,000); active = well fitted inhibition curve with a large enough effect (not every such curve was filed as active); inconclusive = small, poorly fitted or top-dose-only effect, or another doubt; inactive = no such curve, though single readings can be large or run the other way;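 note: top concentration of the series not given in the record; plate controls included wells without enzyme; inactives centre near -10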
Target sequence (P15428 whole entry, looked up): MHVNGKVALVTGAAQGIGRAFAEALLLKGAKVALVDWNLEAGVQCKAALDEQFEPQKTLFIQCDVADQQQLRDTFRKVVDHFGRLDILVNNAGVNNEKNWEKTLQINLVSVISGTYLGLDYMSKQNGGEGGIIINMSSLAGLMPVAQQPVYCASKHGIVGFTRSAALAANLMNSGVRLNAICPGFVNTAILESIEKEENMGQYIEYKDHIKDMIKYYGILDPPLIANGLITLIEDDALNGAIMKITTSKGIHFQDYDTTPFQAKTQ
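NADH formation kinetics: reaction with 30 uM PGE2 and 1 mM NAD+ (final), 20 nM enzyme, Tris-HCl pH 8 with Tween 20, after 15 min compound preincubation at room temperature. Fluorescence change, last versus first of five reads.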
* hit, by the source's call; ? = inconclusive; & = joins results of further samples; [ ] = remark or other dose. % is set by controls: 0 for no effect and ±100 for the full control effect; potency is the fitted concentration of half-maximal effect. The list is partial; count on the stated rates, not on these rows.

SMILES	HPGD inh
CC(=O)N(C)c1ccc(NC(=S)Nc2cccc3ccccc23)cc1	-21%
Cc1ccc(C)c(NC(=S)N2CCN(c3cccc(C(F)(F)F)c3)CC2)c1	-4%
Cc1ccc(S(=O)(=O)/N=C(\CSC(N)=O)Nc2ccccc2)cc1	-11%
Cc1c(Cl)ccc2sc(NC(=O)CN3C(=O)c4ccccc4C3=O)nc12	-11%
O=C(NCCCN1CCCC1=O)c1cccs1	-5%
C=CCOC(=O)C1=C(C)NC(C)=C(C(=O)OCC=C)C1c1cn(-c2ccccc2)nc1-c1ccco1	33%[activator]
CCOC(=O)c1cc(C(=O)Nc2ccccc2F)nn1C	-3%
CC(C(=O)N1CCCc2ccccc21)N1C(=O)c2ccccc2C1=O (stereo unspecified)	-6%
CCCCCCCC/C=C\CCCCCCCC(=O)OCC(CO)OC(=O)CCCCCCC/C=C\CCCCCCCC (stereo unspecified)	-2%
CCCOc1ccc(N2C(=O)C3ON(c4ccccc4)C(c4ccc(O)c(OC)c4)C3C2=O)cc1 (stereo unspecified)	-2%
Cc1sc(NC(=O)/C=C/C(=O)O)c(C(N)=O)c1-c1ccc(C(C)(C)C)cc1	25µM*
COc1ccc(CCn2c(C)ccc2C)cc1OC	-18%
CC1(C)CC(=O)C=C(NNC(=O)c2ccc(N)cc2)C1	-6%
O=C1CC(c2nc3ccccc3[nH]2)CN1c1ccccc1 (stereo unspecified)	-10%
COC(=O)c1[nH]c(C)c(/C(O)=C2\C(=O)C(=O)N(CCN(C)C)C2c2ccccc2OC)c1C (stereo unspecified)	-15%
CC(=O)c1nccs1	-9%
COC(=O)C(C)N1C(=O)S/C(=C/c2cc(C)n(C(C)C)c2C)C1=O (stereo unspecified)	-12%
CCCCn1cc(C(C)(C)C)c(C#N)c1NC(C)=O	-13%
CC1CCc2c(sc(NC(=O)CSc3nnc(-c4ccccc4)o3)c2C#N)C1 (stereo unspecified)	-2%
N#CC(C#N)=CNCCN1CCN(C=C(C#N)C#N)CC1	-12%

Some values from the list:
CCCCn1cc(C(C)(C)C)c(C#N)c1NC(C)=O in HPGD inh has -13%
CC1CCc2c(sc(NC(=O)CSc3nnc(-c4ccccc4)o3)c2C#N)C1 (stereo unspecified) in HPGD inh has -2%

Next part.
SMILES	HPGD inh
CCOc1cc(S(=O)(=O)Nc2ccc(Cl)cn2)ccc1F	-8%
COC(=O)C1=C(C)OC(N)=C(C#N)C1c1ccc(OC)c(CSc2ccccn2)c1 (stereo unspecified)	-18%
Nc1cc(=O)[nH]n1C1CCN(c2ccccc2)CC1	0%
Cc1ccc(/C=C/C(=O)NC(C)c2ccccc2)cc1 (stereo unspecified)	-3%
COc1cc2nc(C3CC3)n(NC(=O)c3ccc(F)cc3)c(=O)c2cc1OC	-11%
COc1ccccc1NC(=O)c1ccc2nc(N3C(=O)CCC3=O)sc2c1	-16%
CC(=O)OC(C(=O)NCCc1ccccc1)c1cccnc1 (stereo unspecified)	1%
CCOc1ccc(C(=O)NCCCn2ccnc2)cc1	-2%
CC(=O)Oc1cccc(N2C(=O)CC(Nc3ccc(N4CCOCC4)cc3)C2=O)c1 (stereo unspecified)	-9%
COc1cc(CN2CCC(C(=O)N3CCN(c4ccccc4F)CC3)CC2)cc(OC)c1OC	0%
O=C(NC1CC2CCCC(C1)N2C(=O)Nc1ccccc1)c1ccncc1 (stereo unspecified)	-11%
COc1cc(-c2nn3c(COc4ccccc4)nnc3s2)cc(OC)c1OC	?
CCS(=O)(=O)N1CCCC(C(=O)NCCCOC(C)C)C1 (stereo unspecified)	-7%
Cc1ccc(C)c(OCC(=O)O/N=C(\N)c2ccccn2)c1	-6%
CCOC(=O)c1cc2sc(C)cc2n1CC(=O)NCCc1ccccc1	-25%
Cc1ccccc1CSc1nccn1-c1ccccc1	-19%
Cc1ccc(N(CC(=O)NCCSc2nc3ccccc3s2)S(=O)(=O)c2ccccc2)c(C)c1	-9%
COC(=O)NC(c1ccc2c(c1)OCO2)C(C(=O)OC)C(=O)OC (stereo unspecified)	0%
N/C(=N\OC(=O)c1cccc(Br)c1)c1ccccc1	?
COC(=O)C1CCN(C(c2cccs2)c2sc3nc(C)nn3c2O)CC1 (stereo unspecified)	-1%

Next section; it opens with the 5 that closed the last part.
SMILES	HPGD inh
Cc1ccccc1CSc1nccn1-c1ccccc1	-19%
Cc1ccc(N(CC(=O)NCCSc2nc3ccccc3s2)S(=O)(=O)c2ccccc2)c(C)c1	-9%
COC(=O)NC(c1ccc2c(c1)OCO2)C(C(=O)OC)C(=O)OC (stereo unspecified)	0%
N/C(=N\OC(=O)c1cccc(Br)c1)c1ccccc1	?
COC(=O)C1CCN(C(c2cccs2)c2sc3nc(C)nn3c2O)CC1 (stereo unspecified)	-1%
O=C(Oc1ccccc1)Oc1ccc2c(c1)oc(=O)c1ccccc12	-25%
COc1ccc(CC(=O)Nc2ccc(-c3nnc(-c4ccccc4)o3)cc2)cc1	?
O=c1c2ccccc2c(-c2ccc(Br)cc2)nn1Cc1ccccc1	-9%
O=C(CN1CCN(c2ncccn2)CC1)NCCC1=CCCCC1	-16%
COc1ccc(-c2cc(CNC(=O)CCl)on2)cc1	-6%
Cc1ccc(-c2noc(CSc3nnc(-c4ccncc4)n3-c3ccc(C)cc3)n2)cc1	-16%
COc1cc(Br)cc(/C=N/NC(=O)Cc2ccc(C(F)(F)F)cc2[N+](=O)[O-])c1O	-17%
Cc1cc(C)nc(NS(=O)(=O)c2ccc(NC(=O)NC3CCCCC3)cc2)n1	-5%
CC(C)(C)n1nnnc1C(c1cccnc1)N1CCN(c2ccccc2F)CC1 (stereo unspecified)	-8%
COC(=O)c1cc(OC)c(OC)cc1NC(=O)CN1C(=O)c2ccccc2C1=O	-9%
C/C(N)=C(/C#N)C(=O)CSc1nc2ccccc2c(=O)n1-c1ccccc1C	-21%
COc1cccc2c(C)nc(Nc3nc(CSc4nnc(C)s4)cc(=O)[nH]3)nc12	-6%
O=C(Oc1ccccc1)N1CCC2(CC1)CN(c1ccncc1)C2	-3%
CC(C(=O)NCc1ccco1)n1cc(C(=O)c2ccco2)c2ccccc21 (stereo unspecified)	-9%
CCOc1cc(S(=O)(=O)NC2CC(C)(C)NC(C)(C)C2)ccc1F	-2%
CN1CCN(C(=O)c2ccccc2-c2nc(-c3ccc(Cl)cc3)no2)CC1	2%
COc1cc(OC)c2c(-c3ccccc3)cc(=O)oc2c1C(CCN1CCOCC1)c1ccc2c(c1)OCO2 (stereo unspecified)	?
CCOC(=O)CCCCCN(Cc1ccccc1)S(=O)(=O)c1ccc([N+](=O)[O-])cc1	-9%
COc1ccccc1CNC(=O)c1cccc(N(C)C)c1	-27%
CC1(C)CC(=O)CC(C)(C)N1OC(=O)c1ccncc1	-10%

A draw from above in order of molar mass, ascending:
SMILES	HPGD inh
COc1ccc(-c2cc(CNC(=O)CCl)on2)cc1	-6%
COc1ccccc1CNC(=O)c1cccc(N(C)C)c1	-27%
O=c1c2ccccc2c(-c2ccc(Br)cc2)nn1Cc1ccccc1	-9%
CCOC(=O)CCCCCN(Cc1ccccc1)S(=O)(=O)c1ccc([N+](=O)[O-])cc1	-9%

Continuation:
SMILES	HPGD inh
O=C(NCC1CCCO1)c1ccccc1-c1nc(-c2ccccc2)no1 (stereo unspecified)	-4%
Cc1ccc(C(=O)C[n+]2cc(Br)cc(Br)c2)cc1[N+](=O)[O-]	-6%
Cc1cc(C(c2nnnn2Cc2ccccc2)N2CCOCC2)c(C)n1-c1ccc2c(c1)OCO2 (stereo unspecified)	-12%
O=C(CNC(c1ccccc1)c1ccccc1)Nc1cc([N+](=O)[O-])ccc1Cl	-29%
N=c1oc2ccc3ccccc3c2cc1-c1nc(-c2ccccc2)cs1	-8%
Cn1ncc(C#N)c1/N=C/N1CCOCC1	-16%
CCN(CC)CCN1C(=O)C(=O)/C(=C(/O)c2cnn(-c3ccccc3)c2C)C1c1ccc(C)o1 (stereo unspecified)	-16%
CCOC(=O)N1CCN(C(=O)CSc2nnc(COc3ccc(Cl)cc3)o2)CC1	-9%
O=C(c1ccc(Cl)cc1)N1CCCC(c2ccccc2)=N1	-14%
Cc1cccc(OCC(=O)N/N=C/C=C/c2ccco2)c1	-7%
CCOC(=O)c1ccccc1NC(=O)COc1ccccc1	-7%
CC1(C)Cc2nc3oc4c(N(CCO)Cc5ccccc5)ncnc4c3cc2CO1	?
c1ccc(C(c2cccc3c2ccc2ccccc23)[C@H](c2ccccc2)c2cccc3c2ccc2ccccc23)cc1 (stereo partly specified)	-14%
COC(=O)c1cccc(Cn2nnc3ccccc3c2=O)c1	-13%
O=C(N1CCCCCC1)N1CCN(S(=O)(=O)N2CCCCC2)CC1	-1%
Cc1c(C)c2cc(Cl)c(O)c(CN(C)C)c2oc1=O	?
CCOC(=O)N1CCC(NC(=O)c2cc3c(-c4ccc(Cl)cc4)nn(C)c3s2)CC1	?
CCOC(=O)C1=C(N)Oc2cc(C)n(CCc3ccc(OC)c(OC)c3)c(=O)c2C1c1cccnc1 (stereo unspecified)	-20%
CC(C)OC(=O)NC(C)(C)COC(=O)Nc1cccc(Cl)c1	1%
Clc1ccc(CSc2nnc(CN3CCOCC3)n2-c2ccccc2)cc1Cl	-4%
CC1=NN(c2ccccc2)C(=O)/C1=C/c1ccc[nH]1	-5%
Cc1ccc(-c2cn(-c3ccc(SC(F)F)cc3)c3[n+]2CCC3)cc1	-9%
O=C(O)CCc1ccc(-c2ccc(F)cc2)n1CCC(=O)O	-14%
O=C(Nc1cc(C(=O)N2CCCC2)ccc1N1CCCC1)c1ccccc1F	?
O=C(CCC(=O)Nc1cccc2ccccc12)N/N=C/c1ccco1	-1%
Oc1ccc(N=Cc2ccc(-c3cccs3)s2)cc1	?
OCC1OC(n2cnc3c(Cl)ncnc32)C(O)C1O (stereo unspecified)	-3%
COc1ccc(Cl)cc1NC(=O)N1CCN(CCc2ccccc2)CC1	-5%
Nc1nc(SCCN2C(=O)c3ccccc3C2=O)n[nH]1	-1%
COC(=O)c1ccccc1NC(=O)C1CCCC1	?
O=C(OC1Cc2c(O)cc(O)cc2OC1c1cc(O)c(O)c(O)c1-c1c(C2Oc3cc(O)cc(O)c3CC2OC(=O)c2cc(O)c(O)c(O)c2)cc(O)c(O)c1O)c1cc(O)c(O)c(O)c1 (stereo unspecified)	22µM*
CC1=NN(C(=O)Cc2ccc([N+](=O)[O-])cc2)C(O)(c2ccccc2)C1 (stereo unspecified)	-4%
O=C(CCCCCC(=O)N(CCO)CCO)N(CCO)CCO	-3%
COC(=O)c1sc2ncccc2c1OCc1ccc(Cl)cc1Cl	-20%
O=c1c[n+]([O-])c2ccccc2n1OCc1ccccn1	-20%
COc1ccc(NC(=O)c2ccc3c(c2)C(=O)N(Cc2cccnc2)C3=O)cc1	-4%
O=[N+]([O-])c1ccc2n[nH]nc2c1	-8%
CC(C)=CCC/C(C)=C/CCC(C)NCCN1CCNCC1 (stereo unspecified)	-4%
CN(C)CCCSC(=N)N	-1%&1%
Cc1ccc(NC(=O)C2=CCN(S(=O)(=O)c3ccc(F)cc3)CC2)cc1	-8%
CCC(Sc1nc2ccc(N)cc2s1)C(=O)Nc1nccs1 (stereo unspecified)	25µM*
CC(C)CCNC(=O)C(NS(=O)(=O)c1ccc2c(c1)c(=O)n(C)c(=O)n2C)c1ccccc1 (stereo unspecified)	-15%
Cc1[nH]c(=O)[nH]c(=O)c1S(=O)(=O)N1CCN(c2cccc(Cl)c2)CC1	-13%
CCCC(=O)Nc1ccc(C(=O)Nc2nc(CC(=O)OCC)cs2)cc1	-11%
C/C(=N/NC(=O)Cc1cccc2ccccc12)c1cccs1	-2%
CCOc1ccc(C)cc1S(=O)(=O)Nc1ccc(Cl)cn1	0%
N#Cc1c(C(F)(F)F)cc(-c2cccc(Cl)c2)[nH]c1=O	?
CCOC(=O)c1cc(C)n(Cc2ccc(OCC)c(OC)c2)c1C	-22%
Cc1ccc(NC(=O)CC2S/C(=N/N=C3\CCCc4ccccc43)NC2=O)cc1 (stereo unspecified)	-14%
CCN(CC)C(=O)C(C)OC(=O)COc1ccc(Cl)cc1C (stereo unspecified)	-6%
CC(C)OC(=O)NCCOC(=O)Nc1ccc(Cl)c(Cl)c1	-7%
CCOC(=O)c1ccc(N2C(=O)C3C(C2=O)C(C(=O)c2ccc(Cl)cc2)N2CCCC32)cc1 (stereo unspecified)	2.2µM*
CN(C)/C=N/c1sc2c(c1C#N)CCC2	25µM*
Oc1ccccc1C=NCC(O)c1ccccc1 (stereo unspecified)	-20%
CCOc1ccc(C(=O)Nc2ccc(S(=O)(=O)N3CCOCC3)cc2)cc1OCC	-20%
Cc1ccc(S(=O)(=O)Oc2ccc(/C=N/NC(=O)c3c(Cl)cnn3C)cc2)cc1	-5%
CCC(=O)N[C@@H]1Cc2ccccc2[C@@H](c2ccccc2)C1	-2%
N/C(=N\OC(=O)CCc1ccccc1)c1cccc(Br)c1	-3%
O=c1c2c(n3nnnc3n1Cc1ccccc1)-c1ccccc1CC21CCCC1	?
COc1cc([C@H]2[C@@H]3CCCC[C@]3(O)CCN2Cc2ccccc2F)ccc1O	-10%

Remaining list, next part:
SMILES	HPGD inh
CN(C)Cc1c(O)ccc2occ(C(=O)c3ccccc3)c12	0%
CCn1c(=O)c2c(nc3n2CCS3)n(C)c1=O	-7%
CCCOc1ncnc2c1[nH]c1ccccc12	?
O=C1NC(c2ccccc2)=C(c2ccccc2)C1=O	-11%
COC(=O)N1CCC2(CC1)CN(c1ccccc1)C2	-3%
CC(C)(C)C(=O)Nc1nc2c(s1)COc1ccccc1-2	-19%
COc1ccc(N2CCN(C(=O)CCCSc3nc4ccccc4[nH]3)CC2)cc1	-4%

Screening data as filed in PubChem BioAssay.
